Source: PubChem BioAssay (several laboratories)
Sa ugtP lethal = kills S. aureus RN4220 lacking UgtP. S. aureus RN4220 ugtP deletion, OD600 growth, 16 h; some inactives read as strong as hits. growth inhibition, % (no concentration beside the values). 330,000 tested, 0.54% active. AID 1259309;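 active = z-score under -3 and OD600 up to 0.15 on both plates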;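 note: plate controls were untreated wells for no effect and antibiotic for full effect; wells of about 80 µL received 100 nL stock; the first replicate is given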
Sa RN4220 lethal = kills Staphylococcus aureus RN4220 | S. aureus RN4220 growth, OD600, 16 h | inhibition, % (no concentration beside the values) | 330,000 tested, 0.33% active | AID 1259311;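 active = z-score of -3 or lower and OD600 up to 0.18 on both plates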;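 note: plate controls were untreated cells for no effect and reference antibiotic for full effect; stock transfer was 100 nL into about 80 µL; one replicate is shown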
BJeLR viability = BJeLR cell viability loss; AID 1554; 300,000 tested, 0.17% active; BJeLR (HRASV12) viability, CellTiter-Glo ATP luminescence, 48 h; reference of the scale not given here; inhibition, % (concentration not given with the values);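 active = replicate mean above 50%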;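 note: 50 nL library stock added to about 25 µL; numbers are from one replicate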
PrP UTR inh = inhibition of PrP 5' UTR reporter expression. inhibition, % (no concentration beside the values). 340,000 tested, 0.35% active. cell-based PrP 5' UTR mRNA reporter, plate reader. AID 488862;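 active = every replicate at 50% or more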;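 note: 0 = median of the neutral control wells; tested in H4 reporter cells; numbers are from one replicate; inactives centre near -14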
Mtb hypoxia rep = inhibitors of hypoxia-regulated fluorescent reporter in Mycobacterium tuberculosis; fluorescence inhibition, % (concentration not given with the values); 300,000 tested, 0.1% active; M. tuberculosis hypoxia-regulated fluorescent reporter, fluorescence;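 active = 35 to 45% if threefold the growth effect, above 45% if 1.5-fold the growth effect; inactive = the rest, general growth blockers included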;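 note: wells of about 50 µL received 100 nL stock; 0% = vehicle wells and 100% = reference inhibitor wells; whole bacteria with a GFP reporter of the hypoxia response; strong numbers were not always called active; many hits fall short of the cut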
Autofluor counter = counter-screen for toxin protease inhibitors: compound fluorescence. compound autofluorescence counterscreen, microsphere flow cytometry; hits give high values. 360,000 tested, 3.1% active. fluorescence intensity (test concentration not listed);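 active = at least 3 SD above the mean of all compounds, about 16000 in these data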;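 note: 100 nL of 1 mM stock went into each well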
Mtb hypoxia rep growth = recorded beside Mtb hypoxia rep, whose call it bears; growth inhibition, %; measured here: M. tuberculosis growth (absorbance);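 0% = vehicle and 100% = reference antibiotic; read after six days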
The depositor's hits bear a star; x = no result given; & = joins results of further samples.

SMILES	Sa ugtP lethal	Sa RN4220 lethal	BJeLR viability	PrP UTR inh	Mtb hypoxia rep	Mtb hypoxia rep growth	Autofluor counter
CC(NCc1ccc2c(c1)OCO2)c1ccccc1 (stereo not given)	3	-0.7	2	-16	-6	2	3986
Cn1c(=O)cc(SCC(=O)NCCC2=CCCCC2)c2cc(Cl)ccc21	14	9.7	-9	-35	-6	-2	7950
CCN(CC)S(=O)(=O)c1ccc(/C=C/C(=O)Nc2ccc(F)cc2F)cc1	-1	0.9	-2	-17	-8	9	2146
O=C(O)CCn1c(=O)[nH]c2ccccc2c1=O	5	2.1	1	-10	8	9	5421
COc1ccc(C=NNC(=O)CN(C2=NS(=O)(=O)c3ccccc32)c2ccccc2)cc1OC	-1	1.9	x	x	-4	5	x
Nc1nc(N2CCN(C(=O)c3ccco3)CC2)nc2ccccc12	0	2.4	-15	-53	9	3	9022
O=C(CSc1nc2cc(Cl)ccc2s1)NC1CCCc2ccccc21 (stereo not given)	7	-4.7	3	-4	5	8	2915
COC(=O)Nc1nnc(/C=C/c2ccccc2)s1	8	4.8	-3	-32	8	10	1955
O=C(COc1ccccc1)N1CCc2ccccc2C1	3	2.7	2	-27	x	x	2935
COc1ccc(CN(C(=O)CN2C(=O)C(C)Oc3ccccc32)C2CCCC2)c(OC)c1 (stereo not given)	6	4.2	-1	x	9	0	7941
O=c1cc(/N=C/c2coc3cc(Br)ccc3c2=O)[nH]c(=S)[nH]1	x	x	-21	-11	x	x	6101
COC(=O)Cc1ccc(NC(=S)N2CCN(c3cccc(O)c3)CC2)cc1	-5	5.6	6	-19	x	x	2547
O=C(Nc1ccccc1C(=O)NC1CC1)c1ccccc1	7	5.3	x	2	7	-2	2917
CC(C)C(=O)NC(NC(=S)Nc1ccc(S(N)(=O)=O)cc1)C(Cl)(Cl)Cl (stereo not given)	5	3.7	7	-17	8	-4	2352
CC(C(=O)N1CCN=C1c1ccccc1)N1C(=O)c2ccccc2C1=O (stereo not given)	5	2.7	-6	-66	2	10	4342
COc1ccc(CN2CCN(Cc3ccccc3OC)CC2)cc1	4	0.6	5	-10	8	-1	4335
CCOC(=O)Cc1ccc(NS(=O)(=O)c2ccc(SC)cc2)cc1	-5	12	-16	-12	-4	4	3531
O=C(CNS(=O)(=O)c1ccccc1)NCC(=O)OCc1ccc(Cl)cc1	-2	13	-6	-25	-8	1	3596
CCOc1nc(-c2ccccc2)ccc1-c1noc(-c2ccc(OC)c(OC)c2)n1	9	-1.1	x	-19	-3	9	4954
O=C(N=C1SC2CS(=O)(=O)CC2N1Cc1ccc(F)cc1)C1CCCO1 (stereo not given)	2	0.9	4	-4	-8	-1	5316
O=C(O)[C@H]1CCCC[C@H]1C(=O)Nc1cc([N+](=O)[O-])ccc1F	4	3.2	-2	-56	16	1	2527
CCCOc1ccc(NC(=O)c2cc3cc(C)ccc3[nH]2)cc1	2	3.0	8	-23	7	7	3123
Cc1ccccc1NC(=O)Cc1nc(COC(=O)CCOc2ccccc2)cs1	9	2.6	-1	-3	3	5	5503
O=C(CCn1nc(-c2ccccc2)c2ccccc2c1=O)Nc1cccnc1	9	3.7	-4	-12	3	-1	1999
CCOc1ccc(N(C(=O)CNC(=O)c2ccco2)C(C(=O)NC2CCCC2)c2ccco2)cc1 (stereo not given)	5	-0.1	-16	-26	9	2	5214

5 entries drawn at random from those above, as already listed:
SMILES	Sa ugtP lethal	Sa RN4220 lethal	BJeLR viability	PrP UTR inh	Mtb hypoxia rep	Mtb hypoxia rep growth	Autofluor counter
CCCOc1ccc(NC(=O)c2cc3cc(C)ccc3[nH]2)cc1	2	3.0	8	-23	7	7	3123
CCN(CC)S(=O)(=O)c1ccc(/C=C/C(=O)Nc2ccc(F)cc2F)cc1	-1	0.9	-2	-17	-8	9	2146
CC(NCc1ccc2c(c1)OCO2)c1ccccc1 (stereo not given)	3	-0.7	2	-16	-6	2	3986
COc1ccc(C=NNC(=O)CN(C2=NS(=O)(=O)c3ccccc32)c2ccccc2)cc1OC	-1	1.9	x	x	-4	5	x
COc1ccc(CN2CCN(Cc3ccccc3OC)CC2)cc1	4	0.6	5	-10	8	-1	4335

The main list resumes, repeating the three entries before the break.
SMILES	Sa ugtP lethal	Sa RN4220 lethal	BJeLR viability	PrP UTR inh	Mtb hypoxia rep	Mtb hypoxia rep growth	Autofluor counter
Cc1ccccc1NC(=O)Cc1nc(COC(=O)CCOc2ccccc2)cs1	9	2.6	-1	-3	3	5	5503
O=C(CCn1nc(-c2ccccc2)c2ccccc2c1=O)Nc1cccnc1	9	3.7	-4	-12	3	-1	1999
CCOc1ccc(N(C(=O)CNC(=O)c2ccco2)C(C(=O)NC2CCCC2)c2ccco2)cc1 (stereo not given)	5	-0.1	-16	-26	9	2	5214
Fc1ccc(C2=CCN(C(c3ccc(Cl)cc3)c3nnnn3Cc3ccccc3)CC2)cc1 (stereo not given)	5	1.5	2	-22	5	-11	2902
Cc1c(N(C)C(=O)c2ccccc2F)c(=O)n(-c2ccccc2)n1C	2	1.2	1	-11	9	7	3392
COC(=O)c1cccc(NC(=O)c2cc3ccccc3o2)c1	3	4.8	1	-49	4	0	3185
COc1ccc(-c2[nH]ncc2/C=N\NS(=O)(=O)c2ccc(Cl)cc2)cc1	x	x	3	4	x	x	2226
COc1cc(C=O)ccc1OCC(=O)N1CCOCC1	7	1.3	4	-16	x	x	2677
CC(C)(Cc1ccccc1)NC(=O)C(=O)c1cn(CC(=O)N2CCOCC2)c2ccccc12	2	1.5	0	-6	2	5	4550
CCN(CC)CCCNC(=O)Cn1nc(-c2ccccc2)ccc1=O	-3	6.6	2	-15	-5	5	20162*
O/N=C/c1cn(-c2ccc(Cl)cc2)nn1	x	x	5	-23	x	x	4146
CN(C)S(=O)(=O)N1CCC(CO)(Cc2cccc(C(F)(F)F)c2)CC1	4	5.8	4	-29	5	4	4379
CS(=O)(=O)N(CC(=O)Nc1ccccc1C(=O)NCc1ccccc1)c1ccc2c(c1)OCCO2	7	2.8	1	-3	1	4	7476
O=C(CCCOc1ccccc1)Nc1nncs1	2	0.9	-9	9	-2	0	9804
CS(=O)(=O)N(CC(=O)NCC1CCCO1)Cc1ccc(Cl)cc1 (stereo not given)	2	4.7	-7	-20	x	x	3793
COc1cccc(NC(=O)C2CCCN2S(=O)(=O)c2cccc3cccnc23)c1 (stereo not given)	1	6.5	x	x	8	0	x
CN(C)CCOC(c1ccc(Cl)cc1)c1ccccn1 (stereo not given)	x	x	-17	-7&-6	x	x	5819&6075
Cc1ccc(C)c(N(CC(=O)NCCSCc2ccco2)S(C)(=O)=O)c1	-15	4.7	-10	0	6	-7	2503
COc1ccc2oc(=O)c(C(=O)NCc3ccccn3)cc2c1	4	18	-4	-18	-2	4	3312
COc1ccc2nc(SCC(=O)/C(C#N)=C(\C)N)[nH]c2c1	6	3.4	-11	-53	x	x	2730
NC(=O)c1nsc(C(=O)N(CC(=O)NCc2ccccc2)c2ccc(F)cc2)c1N	1	7.2	-10	-18	6	5	5564
O=C(Nc1ccc(Cl)cc1)c1ccc(Br)cc1F	4	5.2	5	-108	11	7	4960
C=CCn1cc(C=NNC(=O)c2cc3c(ccc4ccccc43)o2)c2ccccc21	-25	-18	x	x	9	7	x
Cc1cc2ncn(N=Cc3cc(Br)ccc3O)c2cc1C	-20	-8.3	x	x	-8	3	x
COc1cc(C=C2C(=O)OC(C)(C)OC2=O)ccc1OCC(=O)Nc1ccccc1	1	4.9	7	-76	10	15	2637
O=C(COC(=O)c1cc(S(=O)(=O)NCc2ccccc2)ccc1O)c1cc2ccccc2o1	-3	7.1	15	-8	3	-1	4824
COCC(=O)Nc1cc(Cl)ccc1C	9	2.7	4	-13	-9	4	4532
COc1ccc(C(=O)NN=CC2CC=CCC2)cc1OC (stereo not given)	8	1.8	x	x	6	5	x
The listing continues.
SMILES	Sa ugtP lethal	Sa RN4220 lethal	BJeLR viability	PrP UTR inh	Mtb hypoxia rep	Mtb hypoxia rep growth	Autofluor counter
CC(=O)Nc1ccc(NC(=O)c2cc(S(=O)(=O)N3CCCCC3)ccc2N2CCOCC2)cc1	-1	3.2	x	-10	-6	8	4087
O=C1/C(=C\c2cc([N+](=O)[O-])ccc2O)SC(=S)N1Cc1ccc(Cl)cc1	65	88*	18	-34	9	5	5465
O=c1[nH]c2ccc(NC(=S)Nc3ccc(F)cc3)cc2[nH]1	4	13	-2	-13	8	-1	4169
Cn1cc(S(=O)(=O)N2CCCC(C(=O)O)C2)cn1 (stereo not given)	5	6.5	6	-22	0	15	4696
CCCCn1ccnc1C(=O)c1ccc(S(=O)(=O)N2CCCC2)cc1	8	1.0	-12	-19	4	-6	3804
C=CCNC(=O)Nc1ccc2nc(C)sc2c1	5	2.6	0	-13	4	1	3171
Cc1noc(C)c1C(=O)N1CCOCC1	3	1.2	0	-8	x	x	4382
COC(=O)c1ccccc1NC(=O)CN(C)S(=O)(=O)c1cc(C)ccc1OC	-1	-3.4	2	-5	x	x	4812
CCOC(=O)c1cc(-c2ccccc2)sc1NC(=O)COC(=O)c1cccc(S(N)(=O)=O)c1	-15	3.1	-9	6	3	-1	2411
CCOC(=O)CSCc1csc(CC(=O)Nc2ccccc2C)n1	4	0.6	-9	-15	5	6	5619
Cc1noc(C)c1COC(=O)c1ccc(S(=O)(=O)NCc2ccco2)cc1	-3	-4.6	4	-19	x	x	4545
COCC(COS(N)(=O)=O)Cc1ccccc1 (stereo not given)	1	3.0	-9	-16	4	6	3762
O=C(NCc1cccc(C(F)(F)F)c1)c1cccc(S(=O)(=O)N2CCN(Cc3ccccc3)CC2)c1	0	-7.2	5	2	17	1	4626
COc1ccc(O)c(CN2CCC(n3nccc3NC(=O)CCOc3ccccc3)CC2)c1	10	3.0	5	3	6	13	4132
CCOc1ccc(NC(=O)CN(C)C(=O)c2sc3ccccc3c2Cl)cc1OCC	-4	-9.2	0	-10	-4	-3	5516
Cc1cc(C)nc(Nc2ccccc2Cl)n1	0	-0.3	-3	-10	-3	6	4173
Clc1ccc(CON=Cc2c(-c3ccccc3)nc3n2CCS3)c(Cl)c1	-24	8.4	x	x	10	16	x
CCCCn1c(SCC(=O)N(CC)C2CCS(=O)(=O)C2)nnc1C(CC)N(C)C (stereo not given)	-2	4.3	-5	-17	4	8	3609
Cc1ccc(Nc2nc3ccccc3[nH]2)nc1	-8	19	-10	-94	-20	-7	10605
COc1ccc(N2CCN(c3ncnc4scc(-c5ccccc5)c34)CC2)cc1	3	0.8	-3	-14	7	0	3894
O=C(C=NNC(=O)c1ccccc1Br)c1ccccc1	8	9.6	x	x	19	6	x
CCc1nc(SCC(=O)Nc2cc(OC)ccc2OC)c2c(C)c(C)sc2n1	13	-6.1	3	-33	-8	4	5513
CCc1nc(NCCN)c(C#N)c2c1CSC(C)(C)C2	-2	-1.9	10	-23	x	x	2686
Cc1c(N(C)C(=O)C2CCCN2S(=O)(=O)c2ccccc2)c(=O)n(-c2ccccc2)n1C (stereo not given)	5	5.5	9	-6	4	3	9949
COC(=O)/C=C/c1cccc([C@H]2[C@@H]3C=CC[C@@H](C)[C@@H]3C(=O)N2Cc2ccccc2)c1	-8	-1.0	x	3	7	2	3827
Further results.
SMILES	Sa ugtP lethal	Sa RN4220 lethal	BJeLR viability	PrP UTR inh	Mtb hypoxia rep	Mtb hypoxia rep growth	Autofluor counter
CCOc1ccc(C(=O)NCCC2=CCCCC2)cc1OCC	5	-0.3	10	-20	-3	2	2444
COc1ccc(C2CC(=NO)C(C)(C)O2)cc1 (stereo not given)	-5	-0.1	x	x	-7	-7	x
CC(NC1CCCC1)C(=O)Nc1ccccc1-c1ccccc1 (stereo not given)	8	5.8	-5	-18	15	11	3871
Cc1ccc2cccc(OCC(=O)N3CCc4ccccc43)c2n1	0	-0.2	x	-6	10	-1	4512
O=C(O)CSc1nnc(-c2cc3ccccc3o2)n1-c1ccccc1	1	1.0	-7	-11	x	x	3909
COc1ccccc1OCCC(=O)OCC(=O)Nc1ccc2c(c1)OCO2	7	4.9	x	-6	11	2	2911
CC(=O)c1ccc(NC(=O)CN2C(=O)NC3(CCc4ccccc43)C2=O)cc1 (stereo not given)	6	1.9	x	-12	2	4	3842
Cc1ccc(NC(=O)CCNC(=O)c2ccco2)cc1Cl	-3	1.8	8	-8	5	-2	2999
COc1cccc(CNCCc2c[nH]c3ccccc23)c1OCc1ccccc1	-33	4.0	6	-3	2	-8	2520
CCOC(=O)C(=CNc1ccc(Cl)cn1)C(=O)OCC	12	5.3	2	-43	16	2	5193
N#Cc1cc(-c2ccccc2)oc1N=Cc1ccccc1O	-15	14	x	x	10	-4	x
Cc1ccc2c(c1)C(O)(CC(=O)c1cccc(-n3cccc3)c1)C(=O)N2 (stereo not given)	-3	9.1	3	-43	-1	2	4466
